# motility = Vibrio cholerae motility inhibitors, OD read-out (AID 588778) | one-dose inhibition, %; IC50 in µg/mL for titrated hits | Vibrio cholerae motility, OD read-out; higher % means a stronger effect; test concentration not given here; primary cut-off and reference of the scale not given here; strong numbers were not always called active | 10,000 tested, under 10 active; in the data active = confirmed in a dose series
# motility viability = recorded beside motility, whose call it bears; inhibition, %; measured here: bacterial viability at 10 ug/mL;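 higher means fewer living bacteria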
# The depositor's hits bear a star. These rows are one share of the data, so the mix of outcomes need not match the whole.
SMILES,motility,motility viability
O=C(CSc1nccc(=O)[nH]1)N1CCN(c2ccccc2)CC1,-7.5%,-2.2
O=C(CN(Cc1ccc(F)cc1)S(=O)(=O)c1ccccc1)Nc1ccccc1C(F)(F)F,12.8%,5.8
CC(Oc1cccc2cccnc12)C(=O)N/N=C/c1cccc2cccnc12 (centres undefined),4.2%,-4.4
O=C1N=C(N2CCCCC2)S/C1=C\c1ccc(-c2cc(Cl)ccc2Cl)o1,-5.5%,-4.0
COc1ccc(/C=C/c2ncc3ccccn23)cc1,31.9%,7.8
CN(C)S(=O)(=O)c1cccc(N)c1,3.4%,-3.0
CCNC(=S)N1CCN=C1Nc1nc(C)cc(C)n1,-2.6%,30.9
O=C(CSCc1ccc(Br)cc1)N1CCN(c2ccccc2F)CC1,-3.7%,-1.9
Cn1cccc1-c1nc2ccc(N)cc2[nH]1,5.1%,0.9
O=C(CC1Nc2ccccc2NC1=O)Nc1ccc(OC(F)(F)C(F)Cl)cc1 (centres undefined),14.3%,2.6
COc1ccc2cc(Br)ccc2c1COC(C)C,28.2%,11.6
Cc1ccc(C(=O)Nc2sc3c(c2C#N)C(C)(C)OC3(C)C)cc1,-5.7%,-1.9
CCCCOc1cccc(C(=O)NC(=S)Nc2ccc(OC)cc2[N+](=O)[O-])c1,6.2%,0.6
O=C(NCc1ccccc1Cl)C1CCCO1 (centres undefined),-2.4%,-1.5
CC(=O)NC1C(=O)Nc2c1cccc2C(F)(F)F (centres undefined),-6.9%,-1.4
Cc1c(NC(=O)Nc2ccc3c(c2)OCCO3)n(C)c(=O)n1-c1ccccc1,4.9%,-0.6
COc1ccc([N+](=O)[O-])cc1NC(=O)C(Cc1ccccc1)N1C(=O)c2ccccc2C1=O (centres undefined),-8.4%,-7.8
O=[N+]([O-])c1ccc(CS(=O)c2nc(C(F)(F)F)cc(C(F)(F)F)n2)cc1 (centres undefined),13.3%,2.0
N#CSCC(=O)N1c2ccccc2CCc2ccccc21,17.4%,23.2
CCCCNC(=O)c1ccccc1NS(=O)(=O)c1cccs1,8.8%,-2.8
COc1cccc(-n2nnnc2SCC(=O)NCc2cccs2)c1,7.7%,-1.5
O=C(NS(=O)(=O)c1ccc2ccccc2c1)C(Cl)Cl,-2.9%,-5.2
CCN(CC)S(=O)(=O)Cc1ccc([N+](=O)[O-])cc1,13.9%,-1.2
Cc1cc(C)c(C)c(S(=O)(=O)N2CCN(c3ncnc4sc(C)c(C)c34)CC2)c1C,8.1%,-0.7
CCOC(=O)c1cc(-c2ccc3c(c2)OCCO3)n[nH]1,-13.0%,3.7
COc1ccc(/C=C(/C#N)S(=O)(=O)c2ccccc2)cc1COc1c(F)c(F)cc(F)c1F,4.3%,-3.5
O=C(O)CCn1c2ccccc2c2ccccc21,15.5%,-1.8
Cc1ccnc(NC(=O)c2ccc(N3C(=O)CCC3=O)cc2)c1,-5.8%,-3.3
CCCSc1nnc(CN2CCOCC2)n1C,-3.2%,-4.1
COC(=O)c1cc(Br)ccc1NC(=O)c1ccncc1,-6.1%,-7.2
Nc1nc2ccc(N3CCOCC3)cc2s1,-6.5%,-7.3
CC(=O)Oc1ccc(C2Nc3c(C(=O)c4ccccc4)cc(Cl)cc3C3C=CCC32)cc1 (centres undefined),-8.7%,-8.0
CCSC1=C(C#N)C(c2ccc(C)o2)C(C(C)=O)=C(C)N1 (centres undefined),-5.3%,-0.7
Cc1ccc(-c2nc3ccccc3o2)cc1[N+](=O)[O-],-10.0%,-2.6
CCC(=O)c1ccccc1OCCN1CCc2ccccc2C1,15.7%,5.6
O=C(CS(=O)(=O)c1ccccc1)NCc1ccc(Cl)cc1,-15.6%,-11.8
Cn1c(=O)n(C)c2cc3n[nH]nc3cc21,19.4%,19.7
Cc1cc(Cl)c(S(=O)(=O)Nc2cc(S(=O)(=O)N3CCOCC3)ccc2F)cc1OCC(N)=O,-3.6%,-6.1
O=C(NC(Cc1ccccc1)C(=O)NCc1ccccn1)OCc1ccccc1 (centres undefined),15.9%,1.1
COC(=O)c1ccccc1NC(=O)c1nc2nc(C)cc(C)n2n1,7.9%,0.5
N#C/C(=C/c1ccc(Cl)s1)c1ccc(C(=O)O)cc1,0.7%,-3.9
O=C(ON1C(=O)c2ccccc2C1=O)C1CCCCC1,3.7%,2.2
Cc1c(NS(=O)(=O)c2ccc(Br)s2)c(=O)n(-c2ccccc2)n1C,-9.0%,-10.9
O=C1OCCC1Sc1nnnn1-c1ccc(Cl)cc1 (centres undefined),-0.2%,0.0
c1cc(-c2nnc3scnn23)ccn1,13.9%,-0.1
CCCOc1ccc2c(c1)C(=O)c1cc(OCC(=O)O)ccc1-2,-3.6%,-18.2
CCC(C)c1ccc(O)c(NC(=S)NC(=O)c2ccc(-c3ccc(Cl)cc3)o2)c1 (centres undefined),-3.3%,-12.0
COc1ccc(CSc2nnc(NC(C)=O)s2)cc1[N+](=O)[O-],-28.9%,-12.7
O=C(O)c1ccccc1-c1nc(-c2ccccc2F)no1,10.8%,4.2
COCc1n[nH]c(=S)n1-c1ccccc1,-8.9%,-8.7
O=C(Nc1nc(C23CC4CC(CC(C4)C2)C3)cs1)C1CCCO1 (centres undefined),-10.1%,0.5
O=C(Nc1ccc(N2CCN(C(=O)c3cccs3)CC2)c(Cl)c1)c1cc(I)ccc1Cl,0.3%,-10.8
COC(=O)C1=C(O)CSC1=Nc1ccccc1,-13.0%,0.4
Cc1cc(OCC(=O)N(C(C)C)C(C)C)cc(C)c1Cl,6.0%,-1.3
C=CCNC(=S)NNC(=O)COc1c(Cl)cc(Cl)cc1Cl,5.5%,-2.9
Cc1ccc(S(=O)(=O)N2C(=O)CCC2C(=O)O/N=C(\N)c2cccc([N+](=O)[O-])c2)cc1 (centres undefined),-8.1%,-4.5
CCOC(=O)Cc1csc(NC(=S)NC(=O)c2ccco2)n1,12.8%,-0.6
O=S(=O)(NC1c2cccc3cccc(c23)C1N1CCNCC1)c1ccccc1 (centres undefined),10.0%,-4.5
COc1ccc(Cl)cc1N1Cc2cc(C)c(C)cc2C1,-3.4%,-4.0
Cc1cc(C)nc(SCc2noc(-c3ccc(Cl)cc3)n2)n1,6.4%,23.6

# (further entries)
SMILES,motility,motility viability
Cc1cc(=O)c2c(=O)oc3ccccc3c2o1,-6.3%,-4.0
Clc1ccc(OCc2ccccc2Cl)c(CNc2ncn[nH]2)c1,4.2%,-0.2
Cc1cc(Cl)ccc1N1CCN(CCNC(=O)Nc2ccc(F)cc2)CC1,17.6%,5.8
O=C(Nc1nc2ccc(Br)cc2s1)c1cn(-c2ccccc2)nc1-c1cccnc1,-2.8%,-5.7
N#CC1=C(SCC(=O)NCc2ccccc2)NC(=O)CC1c1ccco1 (centres undefined),4.1%,-1.4
O=C1C2CC=C(Cl)CC2C(=O)N1CC1OCCc2ccccc21 (centres undefined),5.3%,-2.9
c1coc(-c2nn3c(C4COc5ccccc5O4)nnc3s2)c1 (centres undefined),-6.3%,-9.4
NNC(=O)CN1C(c2ccccc2)=Nc2ccc(Br)cc2C1c1ccccc1 (centres undefined),-20.2%,-12.4
Cc1ccc(C2=NN=C(NC(=O)CSc3nc(C)cc(C)n3)SC2)cc1,-6.9%,-7.8
C=CCNCCCOc1ccc(Cl)c(Cl)c1,30.5%,1.9
CSCCC(C(=O)O)N1C(=O)c2c(Cl)c(Cl)c(Cl)c(Cl)c2C1=O (centres undefined),5.3%,-8.0
COc1ccc(NC(=O)c2cc(S(=O)(=O)N3CCOCC3)c(Cl)cc2Cl)c([N+](=O)[O-])c1,-16.3%,-8.4
CN(C)CCn1c2c(c3ccccc31)CCCn1nnnc1-2,48.6%,11.6
O=C1CC(=O)N(c2cccc(F)c2)C(=S)N1,14.2%,36.4
Cc1sc2ncnc(SCC(=O)N3CCC(c4noc5ccc(F)cc45)CC3)c2c1C,-10.0%,-1.7
CSCCC(Nc1ncnc2ccc(Br)cc12)C(=O)O (centres undefined),-1.2%,-6.1
O=C(O)CSCC(=O)c1ccccc1,-2.7%,-4.5
Cc1cc(C)nc(SCC(=O)NNC(=O)c2ccccc2C)n1,-13.0%,-0.1
O=S1(=O)N=C(Nc2nnc(SCc3ccccc3Cl)s2)c2ccccc21,0.3%,0.4
CC1(C)Cc2ccccc2C(CC(=O)N2CCCCCC2)=N1,12.5%,6.0
CCN(CC)S(=O)(=O)c1ccc(OC(C)C)nc1,-6.9%,-10.3
Cc1cccc(OCC(O)CN2C(C)(C)CC(O)CC2(C)C)c1C (centres undefined),4.1%,1.7
N#CSc1ccc(NC(=O)c2ccccc2F)c(Cl)c1,10.8%,-1.0
O=C(CSc1nccn1Cc1ccccc1)Nc1ccc(Cl)cc1,19.5%,27.5
c1ccc(CCNc2nc(-c3cccnc3)cs2)cc1,21.8%,4.5
COC(=O)c1cc(-c2ccccc2)sc1NC(=S)NC(C)c1cc(OC)ccc1OC (centres undefined),-14.3%,-11.6
COc1cc(Nc2nc(-c3ccc(CC(C)C)cc3)cs2)c(OC)cc1Cl,-12.5%,-2.7
Cc1nc(Oc2ccc3ccc(=O)oc3c2)c2c3c(sc2n1)CCCCC3,0.3%,-2.8
O=C(CSCc1ccccc1Cl)Nc1ccc(-c2nc3ccccc3[nH]2)cc1,-23.3%,-11.8
Fc1ccc(NC(=S)NNC(=S)Nc2ccc3c(c2)OCO3)c(F)c1,-19.7%,-8.2
CCOC(=O)N1CCN(CC(=O)c2c(C)[nH]c3ccccc23)CC1,8.2%,6.1
O=C(Nc1nnc(-c2ccccc2Cl)o1)c1ccco1,19.3%,2.6
O=C(CSC1CCCCC1)Nc1ccc(Cl)cc1Cl,1.3%,2.8
Cc1cc(SCC(=O)NCc2ccco2)nc2ccccc12,11.0%,3.0
C=CCC1c2cccc(C(=O)O)c2C(=O)N1c1ccc(F)cc1 (centres undefined),-4.9%,-6.5
O=C(NC(=S)Nc1ccccc1OC(F)F)c1ccccc1Br,23.1%,6.1

# Some of these compounds in order of formula weight, lowest first.
SMILES,motility,motility viability
c1ccc(CCNc2nc(-c3cccnc3)cs2)cc1,21.8%,4.5
C=CCC1c2cccc(C(=O)O)c2C(=O)N1c1ccc(F)cc1 (centres undefined),-4.9%,-6.5
O=C(CSCc1ccccc1Cl)Nc1ccc(-c2nc3ccccc3[nH]2)cc1,-23.3%,-11.8

# (more compounds)
SMILES,motility,motility viability
c1ccc(CN2CCN(CCOc3ccccc3)CC2)cc1,13.7%,1.0
Ic1ccc2ncnc(NCC3CCCO3)c2c1 (centres undefined),11.5%,28.7
O=C1C2C3C=CC(C3)C2C(=O)N1CCN1CCN(S(=O)(=O)/C=C/c2ccccc2)CC1 (centres undefined),-0.8%,-6.0
CSc1ccc(CN2CCC(N3CCCC3)CC2)cc1,-6.0%,-3.7
COc1ccc(N2N=NN(C(C)C)/C2=C/c2nnnn2-c2ccc(OC)cc2)cc1,-17.0%,-11.6
N#Cc1cc(SCCC(=O)O)c(N2CCOCC2)cc1C#N,-3.9%,5.7
O=C(NCCC1=CCCCC1)c1c(F)c(F)c(F)c(F)c1F,9.4%,-1.5
CCOc1ccc(S(=O)(=O)Nc2nccs2)cc1,2.7%,6.8
O=S(=O)(c1ccc(Cl)cc1)N1CCCCC1c1cccnc1 (centres undefined),-7.2%,-1.9
COc1ccc(C(=O)N(Cc2ccc(C)o2)C2CCS(=O)(=O)C2)cc1Cl (centres undefined),1.9%,1.1
CC(c1ccccc1)n1c(-c2cc(C(C)(C)C)[nH]n2)n[nH]c1=S (centres undefined),7.5%,0.6
O=Cc1coc2ccc3ccccc3c2c1=O,30.5%,17.2
C=C1C2(C(=O)Nc3nc4ccc(Br)cc4s3)CCC(C2)C1(C)C (centres undefined),-2.4%,-1.2
Cc1ccc(C)c(NCc2ccccc2CO)c1,-7.5%,-4.0
O=C(NCc1ccc2c(c1)OCO2)C1(S(=O)(=O)c2ccccc2)CC1,5.3%,3.4
O=C(Oc1c(Br)cc(Cl)c2cccnc12)N1CCOCC1,14.0%,34.0
c1ccc(Oc2cccc(CSc3ncn[nH]3)c2)cc1,5.2%,1.0
Cc1ccc(S(=O)(=O)C2CCOC2=O)cc1 (centres undefined),4.5%,3.8
CCOC(=O)c1c(C)cc(=O)[nH]c1SCC(=O)c1ccc(Cl)cc1,-1.2%,8.0
Fc1ccc(NC(=S)Nc2cccc3ccccc23)cc1Cl,48.0%,43.9
COc1ccc(OC)c(CN2CCN(CCCc3ccccc3)CC2)c1,0.0%,3.1
O=C(Oc1ccc2oc3c(c2c1)CCCC3)c1ccccc1[N+](=O)[O-],-2.8%,-6.0
Cc1ccc(S(=O)(=O)NC(=O)CSC#N)cc1,-5.8%,4.1
O=C(Nc1ccc(Cl)cc1)NC1CC1,44.4%,16.4
O=C(COc1c(Cl)cc(Cl)cc1Cl)NNC(=O)Nc1ccc2c(c1)OCO2,-17.6%,-9.8

# Among those listed so far, 14 have two or more sulfur atoms.
SMILES,motility,motility viability
CCCCNC(=O)c1ccccc1NS(=O)(=O)c1cccs1,8.8%,-2.8
COc1cccc(-n2nnnc2SCC(=O)NCc2cccs2)c1,7.7%,-1.5
Cc1cc(C)c(C)c(S(=O)(=O)N2CCN(c3ncnc4sc(C)c(C)c34)CC2)c1C,8.1%,-0.7
Cc1cc(Cl)c(S(=O)(=O)Nc2cc(S(=O)(=O)N3CCOCC3)ccc2F)cc1OCC(N)=O,-3.6%,-6.1
Cc1c(NS(=O)(=O)c2ccc(Br)s2)c(=O)n(-c2ccccc2)n1C,-9.0%,-10.9
COc1ccc(CSc2nnc(NC(C)=O)s2)cc1[N+](=O)[O-],-28.9%,-12.7
CCOC(=O)Cc1csc(NC(=S)NC(=O)c2ccco2)n1,12.8%,-0.6
Cc1ccc(C2=NN=C(NC(=O)CSc3nc(C)cc(C)n3)SC2)cc1,-6.9%,-7.8
Cc1sc2ncnc(SCC(=O)N3CCC(c4noc5ccc(F)cc45)CC3)c2c1C,-10.0%,-1.7
O=S1(=O)N=C(Nc2nnc(SCc3ccccc3Cl)s2)c2ccccc21,0.3%,0.4
COC(=O)c1cc(-c2ccccc2)sc1NC(=S)NC(C)c1cc(OC)ccc1OC (centres undefined),-14.3%,-11.6
Fc1ccc(NC(=S)NNC(=S)Nc2ccc3c(c2)OCO3)c(F)c1,-19.7%,-8.2
CCOc1ccc(S(=O)(=O)Nc2nccs2)cc1,2.7%,6.8
Cc1ccc(S(=O)(=O)NC(=O)CSC#N)cc1,-5.8%,4.1

# Screening data: PubChem BioAssay, Southern Research Institute
